Screening data from PubChem.
NS1 inh: qHTS Assay for Inhibitors of Influenza NS1 Protein Function. S. cerevisiae slowed by influenza A NS1, growth recovery by OD600. actives 0.4% (n = 270,000). Potency, µM (top dose mostly 46.1 µM), inactives show at the top dose activity, positive = more growth; active means well fitted rising curve with a large enough effect; inconclusive means small, poorly fitted or top-dose-only effect; inactive means no such curve, though single readings can be large or run the other way; further: nearly all actives have a fitted effect of over 50% in size
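OD600 was taken as the measure of yeast growth restored by compound in an NS1-expressing S. cerevisiae strain. Cells had been washed out of glucose medium and diluted 1:100 into galactose -URA medium, pH 6.0.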
Cruzain inh Det: qHTS Assay for Promiscuous and Specific Inhibitors of Cruzain (with detergent); Cruzipain (Trypanosoma cruzi), P25779; purified cruzain, Z-FR-AMC fluorescence, 0.01% Triton; Potency, µM, for inactives: max response, negative = inhibition, actives largely listed as inhibitors; actives 0.43% (n = 200,000);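 further: plate controls were neutral wells for no effect and buffer without enzyme for full effect; nearly all actives have a fitted effect of over 40% in size; top concentration of the series not given in the record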
Target sequence (P25779 123-467 limits assumed): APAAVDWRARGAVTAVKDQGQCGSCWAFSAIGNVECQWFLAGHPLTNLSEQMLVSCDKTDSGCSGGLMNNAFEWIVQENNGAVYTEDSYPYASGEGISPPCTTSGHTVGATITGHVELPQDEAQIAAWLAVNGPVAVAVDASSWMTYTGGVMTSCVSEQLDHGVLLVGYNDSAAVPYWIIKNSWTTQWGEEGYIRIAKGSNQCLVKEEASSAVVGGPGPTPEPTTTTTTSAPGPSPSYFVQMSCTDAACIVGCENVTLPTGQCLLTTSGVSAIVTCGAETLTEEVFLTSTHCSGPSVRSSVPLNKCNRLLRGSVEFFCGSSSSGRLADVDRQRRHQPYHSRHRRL
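Steps: dispense cruzain (1.5 nM final) in acetate buffer pH 5.5 with DTT and 0.01% Triton X-100; pin-transfer compounds; incubate 15 min RT; add Z-FR-AMC (2 uM final); read fluorescence every 30 s, using the 60 s intensity change.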
Cruzain inh noDet: qHTS Assay for Promiscuous and Specific Inhibitors of Cruzain (without detergent) | Cruzipain (Trypanosoma cruzi), P25779 | purified cruzain, Z-FR-AMC fluorescence, no detergent | Potency, µM, for inactives: max response, negative = inhibition, hits mostly inhibitors | actives 2.3% (n = 200,000) | AID 1476, 2009;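 further: plate controls were enzyme without inhibitor for no effect and buffer without enzyme for full effect; nearly all actives have a fitted effect of over 40% in size; top concentration of the series not given in the record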
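Purified cruzain at 1.5 nM, pre-incubated 15 min with compound at room temperature in 100 mM sodium acetate pH 5.5, 5 mM DTT, 0.00005% Triton X-100. Reaction started with 2 uM Z-FR-AMC; AMC fluorescence increase over 60 s gives rate.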
SARS PLpro yeast: qHTS of Yeast-based Assay for SARS-CoV PLP | actives 0.19% (n = 330,000) | S. cerevisiae expressing SARS-CoV PLpro, growth rescue; control for the full effect not named in the record | AID 485353, 2010 | Potency, µM (series often up to 32.9 µM), inactives show at the top dose activity, positive = growth rescue; active means well fitted rising curve with a large enough effect; inconclusive means small, poorly fitted or top-dose-only effect; inactive means no such curve, though single readings can be large or run the other way; further: 0% is about no effect; nearly all actives have a fitted effect of over 55% in size; growth read by luminescence after 48 h
RE007 growth inh: qHTS Assay for Inhibitors of the HIV-1 protein Vpr; S. pombe RE007 Vpr strain, BacTiter-Glo ATP luminescence, 24 h; control for the full effect not named in the record; Potency, µM (highest dose often 92.2 µM), for the others: at the highest dose activity change, negative = less growth; actives 0.21% (n = 360,000); AID 651644, 2012; active = well fitted falling curve with a large enough effect; inconclusive = small, poorly fitted or top-dose-only effect; inactive = no such curve, though single readings can be large or run the other way;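 further: on the % scale 0 is the no-effect control and ±100 the full control effect; nearly all actives have a fitted effect of over 50% in size; the assay follows cell death caused by Vpr and the record does not say whether a fall means rescue or toxicity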
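Fission yeast strain RE007, carrying one chromosomally integrated HIV-1 vpr copy, was seeded at OD 0.01 in PMG+AL medium with 23 nL pinned compound. After 24 h at 30 °C and 99% humidity, viability was read by BacTiter-Glo luminescence.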
MARV entry inh: qHTS for inhibitors of binding or entry into cells for Marburg Virus; Potency, µM (doses to about 37.8 µM), for the others: top-dose activity change, negative = inhibition, actives largely listed as inhibitors; actives 1.8% (n = 300,000); Marburg virus pseudotyped entry inhibition, cell reporter; control for the full effect not named in the record; about a third of the inactives were read at about 46 µM; AID 540276, 2011; active = well fitted inhibition curve with a large enough effect; inconclusive = small, poorly fitted or top-dose-only effect, or effect the other way; inactive = flat fitted curve, though single readings scatter; tested in HEK293 cells; about a fifth of its hits are not listed in these tables; further: on the % scale 0 is the no-effect control and ±100 the full control effect; luciferase read-out
2A StopGo: High Throughput Screening for Foot and Mouth Disease Virus Antivirals; human cells with a luciferase reporter of 2A StopGo recoding; control for the full effect not named in the record; Potency, µM (top dose mostly 57.9 µM), without a hit: at the top dose signal change, negative = less light; AID 1159524, 2015; actives 1.2% (n = 410,000); active = well fitted falling curve with a large enough effect; inconclusive = small, poorly fitted or top-dose-only effect; inactive = no such curve, though single readings can be large or run the other way; tested in HEK293T cells; further: on the % scale 0 is the no-effect control and ±100 the full control effect; nearly all actives have a fitted effect of over 45% in size; luciferase light after 4 h
Lassa entry inh: qHTS for Inhibitors of binding or entry into cells for Lassa Virus; Lassa virus pseudotype entry inhibition, cell reporter; control for the full effect not named in the record; Potency, µM (doses to about 37.9 µM), for the others: top-dose activity change, negative = inhibition, most hits filed as inhibitors; actives 1.2% (n = 300,000); AID 540256, 2011; active means well fitted inhibition curve with a large enough effect; inconclusive means small, poorly fitted or top-dose-only effect, or effect the other way; inactive means flat fitted curve, though single readings scatter; tested in HEK293 cells; further: on the % scale 0 is the no-effect control and ±100 the full control effect; nearly all actives have a fitted effect of over 50% in size; luciferase read-out
* marks the source's active call; other numbers are inactive results; ? = inconclusive; · = no result given; & = joins results of further samples; [ ] = another dose, or the depositor's remark. Unless noted, the call rests on the fitted dose curve; in most records, active means well fitted curve in the direction sought with a large enough effect; inconclusive means small, poorly fitted or top-dose-only effect, or another doubt; inactive means no such curve, though single readings can be large; an effect the other way counts as inactive or inconclusive. Potency means the concentration at half of the fitted maximal effect.

SMILES	NS1 inh	Cruzain inh Det	Cruzain inh noDet	SARS PLpro yeast	RE007 growth inh	MARV entry inh	2A StopGo	Lassa entry inh
O=C(Nc1ccc(Cc2ccncc2)cc1)c1cccc([N+](=O)[O-])c1	-5%	-3.0%	22%	-8%	-10%	3%	-23%	10%
CC1CCN(C(=O)CSc2nc3ccccc3nc2Cc2ccccc2)CC1	·	-4.0%	4%	·	·	·	-13%	12%[46.1 µM]
COc1ccccc1NC(=S)NCCc1c[nH]c2ccccc12	11%	-3.7%	-14%	-1%	-1%	?	-9%	-23%
CCCNC(=O)C(=O)N/N=C/c1ccc(OCc2ccccc2)cc1	·	·	·	-3%	6%	9%	-22%	22%
O=C(CCc1nnc(-c2ccccc2)o1)NCC1CCN(C2CCCC2)CC1	7%	·	·	0%	4%	-19%[46.1 µM]	2%	·
Cc1ccc(S(=O)(=O)N2CCN(C(=O)CSc3ccc(Cl)cc3)CC2)cc1	-3%	·	·	?	-2%	?	?	?
COc1ccc(Nc2nccc(OC)c2C#N)cc1	6%	4.9%	6%	-8%	-4%	-1%	·	26%
COc1ccc(CCNC(=O)c2cc(Cl)nc3ccccc23)cc1	28%	·	·	5%	1%	-12%[46.1 µM]	1%	-9%[46.1 µM]
COc1cccc(C(=O)COc2ccccc2N2C(=O)C3C4C=CC(C4)C3C2=O)c1 (stereo not drawn)	18%	-0.5%	9%	6%	-9%	?	-17%	6%
Cc1ccc(Nc2c([N+](=O)[O-])ccc3nonc23)cc1C	?	·	·	11%	0%	·	?	·
CC(CNc1nc2ccccc2c2nc(-c3ccccc3)nn12)c1ccccc1 (stereo not drawn)	·	5.1%	0%	·	·	11%[46.1 µM]	?	·
Cc1ccc2cc(CN(Cc3cccs3)Cc3nnnn3CC3CCCO3)c(=O)[nH]c2c1C (stereo not drawn)	-7%	-3.8%	?	2%	4%	?	13%	-24%
CCN1CCN(CC(=O)Nc2nc3ccc(OC)cc3s2)CC1	-1%	-0.7%	-3%	14%	10%	?	26%	19%
Cc1cc(N2C(=O)C3CCCN3C2c2cccc(Cl)c2)no1 (stereo not drawn)	2%	-1.6%	6%	2%	-26%	10%[46.1 µM]	9%	-7%
O=C1c2[nH]nc(-c3ccccc3O)c2C(c2ccccc2F)N1Cc1ccncc1 (stereo not drawn)	·	3.5%	3%	·	·	?	5%	?
Cc1ccc(CNC(=O)CSc2ncn[nH]2)cc1	2%	·	·	0%	3%	-14%[46.1 µM]	23%	13%[46.1 µM]
Cc1ccc(-c2csc3nc(SCC(=O)Nc4ccc(Cl)c(C(=O)O)c4)[nH]c(=O)c23)cc1	25%	·	·	20%	13%	·	3%	·
Cc1cccc(OCCCCc2c(C)n[nH]c2C)c1	-80%	-1.4%	-4%	20%	-6%	?	-17%	2%
COCCn1c(SCC(=O)Nc2cc(C)nn2-c2ccccc2)nnc1-c1ccncc1	1%	3.9%	6%	?	-3%	?	-5%	-1%
CCc1ccc2occ(CC(=O)Nc3nnc(C)s3)c2c1	·	-0.8%	?	·	·	?	-5%	-2%[46.1 µM]
O=C(CCn1cnnn1)NC1CCCN(Cc2ccccc2F)C1 (stereo not drawn)	0%	·	·	-1%	15%	8%	-13%	-8%
O=C(NCc1ccco1)c1cccc(S(=O)(=O)N2CCN(Cc3ccccc3)CC2)c1	·	·	·	10%	-21%	-3%[46.1 µM]	-14%	-21%
COC(=O)CC1C(C(=O)OC)ON2OC(C(=O)OC)C(C(=O)OC)C12 (stereo not drawn)	4%	2.6%	11%	11%	17%	20%	-7%	1%
CN(C)S(=O)(=O)c1cccc(NC(=S)N/N=C/c2cccc(O)c2)c1	-1%	·	·	0%	14%	11%	?	-18%
CCOC(=O)c1[nH]c2ccc(OC)cc2c1N=CN(C)C	8%	-0.1%	3%	0%	-3%	3%	-4%	0%

The list goes on:
SMILES	NS1 inh	Cruzain inh Det	Cruzain inh noDet	SARS PLpro yeast	RE007 growth inh	MARV entry inh	2A StopGo	Lassa entry inh
O=C(Nc1ccc(S(=O)(=O)Nc2nccc(C3Cc4ccccc4C(=O)O3)n2)cc1)c1ccccc1 (stereo not drawn)	10%	-1.2%	4%	?	12%	20%	72%[activator]	-3%
c1ccc(-c2nnc3n2N=C(c2ccc4c(c2)OCO4)CS3)nc1	0%	-2.7%	-6%	-3%	-17%	11%&11%	0%	-15%
CCc1ccc(-c2csc3ncn(CC(=O)NCc4ccco4)c(=O)c23)cc1	?	·	·	3%	10%	?	-29%	?
N/C(=N\c1nc(CSc2ccc(Cl)cc2)cc(=O)[nH]1)Nc1ccccc1C(F)(F)F	-1%	·	·	0%	4%	·	?	·
Cc1ccc(CN(C)C2CCN(C)CC2)cc1	15%	·	·	7%	7%	-39%	-9%	26%
O=C(O)c1cccc(Oc2cccc(Cl)n2)c1	0%	·	·	0%	22%	?	8%	17%
CCN(CC)CCCn1c(=S)[nH]c2cc(Cl)ccc2c1=O	6%	-1.8%	?	0%	-7%	-18%	-21%	0%
S=c1[nH]nc(COc2ccccc2)n1/N=C/c1ccc(Cl)cc1Cl	1%	·	·	1%	-9%	9%	1%	?
Cc1ccc(N2CC(C(=O)Nc3ncc([N+](=O)[O-])s3)CC2=O)cc1 (stereo not drawn)	-4%	·	·	2%	-2%	9%[46.1 µM]	11%	26%[46.1 µM]
Cn1cnnc1SCC(=O)NN(c1ccccc1)c1ccccc1	13%	1.7%	-2%	-16%	12%	-6%	-12%	-3%[46.1 µM]
O=C(O)c1ccccc1C(=O)Nn1cnnc1	8%	·	·	0%	3%	·	0%	·
Cc1nc(S(=O)(=O)N2CCN(c3ccc(Cl)cc3)CC2)cn1C	·	-0.5%	-3%	·	·	·	0%	13%[46.1 µM]
Cc1cccc(N2CCN(C3=NC(=O)/C(=C\c4cn[nH]c4-c4ccccc4)S3)CC2)c1	12%	-10%	?	-17%	-2%	1%	-25%	-3%
COc1ccc2cc(C(=O)C3CCCN(Cc4ccccn4)C3)ccc2c1 (stereo not drawn)	1%	·	·	-1%	-7%	?	3%	-4%[46.1 µM]
COc1ccccc1NC(=O)COC(=O)/C=C/c1ccc(OC)c(OC)c1	·	·	·	-8%	-17%	-2%	0%	?
O=C(CCCN1C(=O)c2ccccc2C1=O)NCCN1C(=O)S/C(=C\c2cccs2)C1=O	9%	-5.6%	-8%	-5%	1%	7%	-12%	5%
O=C(O)c1cccc(S(=O)(=O)Nc2cc(Cl)ccc2Cl)c1	7%	·	·	2%	4%	·	-12%	·
CCC(=O)Nc1ccc2c(c1)nc1n2CCN(CCOC)C1	7%	·	·	1%	11%	·	-7%	·
Clc1ncccc1-c1nnn(-c2ccccc2)n1	-7%	·	·	-1%	-23%	·	16%	·
CC(=O)SC(C[N+](=O)[O-])c1cn(C(C)=O)c2ccccc12 (stereo not drawn)	-194%	-18%	?	-44%	?	-15%	28µM*	-24%
O=C(/C=C/c1cccs1)Nc1ccc(N2CCOCC2)c(S(=O)(=O)Nc2ccccc2Cl)c1	13%	-2.7%	25µM*	11%	13%	?	84%[activator]	?
CN1C(C(=O)NCc2ccc(OC(F)(F)F)cc2)CC2Cn3c(nc4cc(Cl)c(Cl)cc43)C21 (stereo not drawn)	15%	·	·	-20%	7%	·	-18%	·
Cc1cccc(N2CCN(C(=O)/C=C/c3cccs3)CC2C)c1 (stereo not drawn)	·	·	·	-9%	11%	?	-22%	?
C=CCN(Cc1ccc(OC)c(OC)c1)C(=O)c1cc2cc(F)ccc2[nH]1	-20%	·	·	-3%	20%	·	-14%	·
Cc1ccc(Cn2ccnc2SCC(=O)NC2CCCC2)cc1	-24%	0.8%	-4%	7%	-3%	-4%&-4%	-5%&-7%	15%

More records follow.
SMILES	NS1 inh	Cruzain inh Det	Cruzain inh noDet	SARS PLpro yeast	RE007 growth inh	MARV entry inh	2A StopGo	Lassa entry inh
COc1ccc(C(=O)Oc2cc(C)[nH]c(=O)c2[N+](=O)[O-])c(OC)c1	-11%	·	·	-4%	9%	·	-15%	·
CCc1ccccc1N(CC(=O)NC(C)C)C(=O)CCC(=O)Nc1nccs1	6%	·	·	0%	-11%	·	-1%	·
Cc1ccc(CC(=O)Nc2c(C(=O)N3CCN(c4ccccc4F)CC3)oc3ccccc23)cc1	·	-5.9%	?	·	·	-15%[46.1 µM]	25%	0%[46.1 µM]
CCCOc1cccc(CN2CCCCC2c2cccnc2)c1 (stereo not drawn)	0%	3.1%	3%	8%	-14%	?	·	-22%
COc1ccc(-c2nc3c(n2O)CCc2c-3no[n+]2[O-])cc1	-9%	·	·	0%	-4%	·	-3%	·
COc1cc(C2C3=C(CC(C)(C)CC3=O)OC(N)=C2[N+](=O)[O-])ccc1O (stereo not drawn)	-2%	-4.8%	1%	18%	10%	1%	?	·
Cc1cccc(N(C)C(=O)Cc2c(C(=O)O)[nH]c3ccccc23)c1	·	2.4%	-6%	·	·	-1%[46.1 µM]	-6%	-16%[46.1 µM]
Cc1nc(-c2cccs2)sc1C(=O)NN	1%	·	·	4%	2%	-40%	13%	?
O=C(OCc1cc(=O)n2nc(C3CC3)sc2n1)c1ccccc1Cl	·	-2.6%	-11%	·	·	·	4%	?
O=c1[nH]c(NCCO)nc2c1C1(CCCCC1)Cc1ccccc1-2	-102%	-16%	?	-1%	22%	-29%	?	2%
Cc1ccc(-c2nnc(Nc3cccc(O)c3)c3ccccc23)cc1S(=O)(=O)NCCO	-24%	·	·	?	9%	·	59%[activator]	·
N=C1/C(=C/c2cccn2-c2ccc([N+](=O)[O-])cc2)C(=O)N=C2SC=CN12	12%	4.4%	-20%	?	0%	8%	-21%	3%
